Choline anaer gr = growth inhibitors of anaerobic choline-fed gram-negatives, minimal medium, absorbance; Gram-negative bacterium anaerobic choline minimal medium; stronger effect = lower value; many inactives read as strong as hits in the columns shown; calls only; 55,000 compounds, 0.2% hits; AID 1963822, 2024;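 active = growth z-score on choline under -2 at 7 or 20 h with little or no fall on glycerol, limits in tiers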;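 note: stock transfer was 300 nL into about 50 µL; the organism is E. coli; final concentration not given here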
Choline anaer gr early = further read-out of Choline anaer gr, marked with its call; z-score; measured here: choline growth z-score, timepoint 1;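 score of optical density at 7 h as mean of two plates; lower means less growth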
An asterisk follows results filed as active; i = inactive; + = active, no number; & = joins results of further samples. The list is partial; the hit share may differ from the screen's.

| mol | Choline anaer gr | Choline anaer gr early |
| --- | --- | --- |
| CN(C)[C@@H]1C(=O)C(C(N)=O)=C(O)[C@@]2(O)C(=O)C3=C(O)c4c(O)cccc4[C@@](C)(O)[C@H]3C[C@@H]12 | i | -2.7&-0.41 |
| Cn1c(=O)n(C)c2cc(CNCCc3ccc(Cl)cc3)ccc21 | i | -0.85 |
| CC(C(=O)OC1CC2CCC(C1)N2C)c1ccc(Br)cc1 (stereo not drawn) | i | 0.31 |
| Cc1ccc2[nH]cc(C(O)CN3CCOCC3)c2c1 (stereo not drawn) | i | -0.52 |
| COC(C/C=C/C=C/CC/C=C\CC(C)/C=C\C(=C/C(=O)O)CC(=O)O)/C(C)=C\C=C(/C)C(=O)O (stereo not drawn) | i | 0.42 |
| Clc1ccc(C(c2ccc(Cl)cc2)n2cc[n+](CC(OCc3ccc(Cl)cc3Cl)c3ccc(Cl)cc3Cl)c2)cc1 (stereo not drawn) | i | -2.2 |
| C[C@@H]1O[C@@H](O[C@@H]2C[C@@H](O)[C@]3(CO)[C@H]4[C@H](O)C[C@]5(C)[C@@H](C6=CC(=O)OC6)CC[C@]5(O)[C@@H]4CC[C@]3(O)C2)[C@H](O)[C@H](O)[C@H]1O | i | 0.91 |
| C=CCN1CC[C@]23c4c5ccc(O)c4O[C@H]2/C(=N/N=C2\CC[C@@]4(O)[C@H]6Cc7ccc(O)c8c7[C@@]4(CCN6CC=C)[C@H]2O8)CC[C@@]3(O)[C@H]1C5 | i | 0.62 |
| Fc1cc(F)c2c(c1)C1C=CCC1C(c1cccnc1)N2 (stereo not drawn) | i | -0.21 |
| Cc1c(N)nc(C(CC(N)=O)NCC(N)C(N)=O)nc1C(=O)NC(C(=O)NC(C)C(O)C(C)C(=O)NC(C(=O)NCCc1nc(-c2nc(C(=O)NCCC[S+](C)C)cs2)cs1)C(C)O)C(OC1OC(CO)C(O)C(O)[C@H]1OC1OC(CO)C(O)C(OC(N)=O)C1O)c1cnc[nH]1 (stereo partly drawn) | i | -0.71 |
| COCCNC(=O)N1CCC2(C1)C(=O)Nc1ccc(OC)cc12 (stereo not drawn) | i | -0.28 |
| CC(C)(C)OC(=O)NC1[C@H]2CNC[C@@H]12 (stereo partly drawn) | i | 0.3 |
| CC(N)C(=O)OC(C)(C)Cc1ccc(Cl)cc1 (stereo not drawn) | i | 0.37 |
| C[C@H]1C2Cc3ccc(O)cc3C1(C)CCN2CC1CC1 (stereo partly drawn) | i | -0.78 |
| Cc1cccc(C(C)c2cnc[nH]2)c1C (stereo not drawn) | i | -0.4&-1.1&-1.8 |

Single records, from the list above. Screens in order: Choline anaer gr | Choline anaer gr early
C=CCN1CC[C@]23c4c5ccc(O)c4O[C@H]2/C(=N/N=C2\CC[C@@]4(O)[C@H]6Cc7ccc(O)c8c7[C@@]4(CCN6CC=C)[C@H]2O8)CC[C@@]3(O)[C@H]1C5 is listed with i | 0.62
COC(C/C=C/C=C/CC/C=C\CC(C)/C=C\C(=C/C(=O)O)CC(=O)O)/C(C)=C\C=C(/C)C(=O)O (stereo not drawn) is listed with i | 0.42

Next part
| mol | Choline anaer gr | Choline anaer gr early |
| --- | --- | --- |
| C#CCOc1ccc2c(c1)c(C(=O)OCC)c(C)n2Cc1ccccc1 | i | 0.48 |
| Oc1ccc2c3c1O[C@H]1c4[nH]c5ccccc5c4C[C@@]4(O)[C@@H](C2)N(CC2CC2)CC[C@]314 | i | 0.81 |
| CCOC(=O)c1cncn1[C@@H](C)c1ccccc1 | i | -0.43 |
| O=C(Cc1ccccc1)N1CCN(CCc2ccccn2)CC1 | i | -1.1 |
| O=C1CSC(c2ccccc2Cl)c2cc(Cl)ccc2N1 (stereo not drawn) | i | 1.1&0.19 |
| O[C@@H]1CCCC[C@H]1N1CCC(c2ccccc2)CC1 | i | 0.04&0.28 |
| COc1ccc2c(c1)C1(CCN(C(=O)NC(C)C)C1)C(=O)N2C (stereo not drawn) | i | -0.19 |
| O=C1CSC(c2ccccc2)c2c(-c3ccccc3)nn(-c3ccccc3)c2N1 (stereo not drawn) | i | -2 |
| CCCN1CCc2cc(O)cc3c2[C@H]1Cc1ccc(O)c(O)c1-3 | i | 0.75 |
| Cc1ccc(Cn2cccc(C(=O)Nc3nccs3)c2=O)cc1 | i | 0.79 |
| CCOC(=O)c1sc2nc3c(cc2c1N)CN(C(C)C)CC3 | i | -2.4 |
| CCOC(=O)CSC(c1ccccc1)c1c(C(=O)OC)[nH]c2ccccc12 (stereo not drawn) | i | 1.9 |
| CCCC(C)(COC(N)=O)COC(=O)NC(C)C (stereo not drawn) | i | 0.25 |
| CCOc1ccc(C2CC(c3c(O)n(C)c(=O)n(C)c3=O)=NN2)cc1 (stereo not drawn) | i | 0.61 |
| CCC(C)n1[nH]c(=O)c2c1NC(=O)CSC2c1ccccc1 (stereo not drawn) | i | 0.67 |
| Cc1ccc(-n2cc(C3=CCN(CC(=O)N4CCN(c5ccccn5)CC4)CC3)cn2)cc1 | i | 0.53 |
| O=[N+]([O-])C=Cc1ccc2c(c1)OCO2 | + | -2.8* |
| CCCCC1(C2CCCC2)Cc2cc(OCCCC(=O)O)c(Cl)c(Cl)c2C1=O (stereo not drawn) | i | -0.09 |
| COc1ccc2c(c1)C1(CCN(C(=O)CC(C)C)C1)C(=O)N2C (stereo not drawn) | i | 0.51 |
| C[C@]12CCC(=O)CC1CCC1C2CC[C@@]2(C)C1CC[C@]2(C)O (stereo partly drawn) | i | 0.63 |
| CC(C)c1c(CN(C)C(C)Cc2ccccc2)n(C)n(-c2ccccc2)c1=O (stereo not drawn) | i | 0.66 |
| CCCN1CCO[C@@H]2c3cc(O)ccc3OC[C@H]21 | i | -0.35&0.39 |
| COc1ccc(NC(=O)c2cccn(Cc3cccc(F)c3)c2=O)cc1OC | i | -0.47 |
| Cc1ccc(C)c(Cn2cccc(C(=O)Nc3ccon3)c2=O)c1 | i | 0.79 |
| O=C(O)Cc1ccccc1 | i | -0.53 |
| CCCC(=O)N1CCC2(C1)C(=O)N(C)c1ccc(OC)cc12 (stereo not drawn) | i | -0.2 |
| CC(C)NP(=O)(NC(C)C)OP(=O)(NC(C)C)NC(C)C | i | 1 |
| CCN1CCN(c2nccn(CC)c2=O)CC1 | i | -0.66 |
| O=C1C=CC(=O)c2c(O)cccc21 | i | 0.63 |
| CC1c2cccn2-c2ccccc2CN1C(=O)Nc1ccccc1Br (stereo not drawn) | i | 1.1 |
| CCN[C@@H](C)Cc1cccc(C(F)(F)F)c1 | i | 0 |
| C[C@]12CC[C@@H]3c4ccc(OC(=O)N(CCCl)CCCl)cc4CC[C@H]3[C@@H]1CC[C@@H]2O | i | 0.6 |
| CCC(C(=O)Nc1ccc(C(C)C)cc1)N1C(=O)CN=C(c2ccccc2)c2ccccc21 (stereo not drawn) | i | -0.41 |
| CN(C)[C@@H]1C(=O)C(C(N)=O)=C(O)[C@@]2(O)C(=O)C3=C(O)c4c(O)cccc4[C@@](C)(O)[C@H]3[C@H](O)[C@@H]12 | i | -2.7 |
| OCC(O)[C@H]1O[C@@H]2O[C@H](C(Cl)(Cl)Cl)O[C@@H]2[C@H]1O (stereo partly drawn) | i | -0.29 |
| O=C(NC1CCCCC1)c1cc2cccnc2n(Cc2ccc(F)cc2)c1=O | i | -1.1 |
| COc1ccc(OC)c(C(O)C(C)N)c1 (stereo not drawn) | i | 0.23&0.49 |

Grouped by structure, the entries above containing a halogen.
| mol | Choline anaer gr | Choline anaer gr early |
| --- | --- | --- |
| Cn1c(=O)n(C)c2cc(CNCCc3ccc(Cl)cc3)ccc21 | i | -0.85 |
| CC(C(=O)OC1CC2CCC(C1)N2C)c1ccc(Br)cc1 (stereo not drawn) | i | 0.31 |
| Clc1ccc(C(c2ccc(Cl)cc2)n2cc[n+](CC(OCc3ccc(Cl)cc3Cl)c3ccc(Cl)cc3Cl)c2)cc1 (stereo not drawn) | i | -2.2 |
| Fc1cc(F)c2c(c1)C1C=CCC1C(c1cccnc1)N2 (stereo not drawn) | i | -0.21 |
| CC(N)C(=O)OC(C)(C)Cc1ccc(Cl)cc1 (stereo not drawn) | i | 0.37 |
| O=C1CSC(c2ccccc2Cl)c2cc(Cl)ccc2N1 (stereo not drawn) | i | 1.1&0.19 |
| CCCCC1(C2CCCC2)Cc2cc(OCCCC(=O)O)c(Cl)c(Cl)c2C1=O (stereo not drawn) | i | -0.09 |
| COc1ccc(NC(=O)c2cccn(Cc3cccc(F)c3)c2=O)cc1OC | i | -0.47 |
| CC1c2cccn2-c2ccccc2CN1C(=O)Nc1ccccc1Br (stereo not drawn) | i | 1.1 |
| CCN[C@@H](C)Cc1cccc(C(F)(F)F)c1 | i | 0 |
| C[C@]12CC[C@@H]3c4ccc(OC(=O)N(CCCl)CCCl)cc4CC[C@H]3[C@@H]1CC[C@@H]2O | i | 0.6 |
| OCC(O)[C@H]1O[C@@H]2O[C@H](C(Cl)(Cl)Cl)O[C@@H]2[C@H]1O (stereo partly drawn) | i | -0.29 |
| O=C(NC1CCCCC1)c1cc2cccnc2n(Cc2ccc(F)cc2)c1=O | i | -1.1 |
